# SARS PLP yeast – inhibitors of SARS-CoV papain-like protease in yeast; S. cerevisiae expressing SARS-CoV PLpro, growth rescue; control for the full effect not named in the record; Potency, µM (highest dose often 32.9 µM), for the others: top-dose activity, positive = growth rescue; actives 0.19% (n = 330,000); active means well fitted rising curve with a large enough effect; inconclusive means small, poorly fitted or top-dose-only effect; inactive means no such curve, though single readings can be large or run the other way; further: 0% is about no effect; nearly all actives have a fitted effect of over 55% in size; growth read by luminescence after 48 h
# RE007 growth inh – less growth of the S. pombe RE007 Vpr strain | Potency, µM (series often up to 92.2 µM), inactives show at the highest dose activity change, negative = less growth | S. pombe RE007 Vpr strain, BacTiter-Glo ATP luminescence, 24 h; control for the full effect not named in the record | actives 0.21% (n = 360,000); active = well fitted falling curve with a large enough effect; inconclusive = small, poorly fitted or top-dose-only effect; inactive = no such curve, though single readings can be large or run the other way;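 further: on the % scale 0 is the no-effect control and ±100 the full control effect; nearly all actives have a fitted effect of over 50% in size; the assay follows cell death caused by Vpr and the record does not say whether a fall means rescue or toxicity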
#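 Fission yeast strain RE007, carrying one chromosomally integrated HIV-1 vpr copy, was seeded at OD 0.01 in PMG+AL medium with 23 nL pinned compound. After 24 h at 30 °C and 99% humidity, viability was read by BacTiter-Glo luminescence.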
# Lassa entry inh – Lassa virus entry inhibition | Lassa virus pseudotype entry inhibition, cell reporter; control for the full effect not named in the record | Potency, µM (titrated, usually from 37.9 µM), for inactives: top-dose activity change, negative = inhibition, hits mostly inhibitors | actives 1.2% (n = 300,000); active means well fitted inhibition curve with a large enough effect; inconclusive means small, poorly fitted or top-dose-only effect, or effect the other way; inactive means flat fitted curve, though single readings scatter; tested in HEK293 cells; further: on the % scale 0 is the no-effect control and ±100 the full control effect; nearly all actives have a fitted effect of over 50% in size; luciferase read-out
# 2A StopGo – lowers the luciferase signal of an FMDV 2A StopGo reporter. human cells with a luciferase reporter of 2A StopGo recoding; control for the full effect not named in the record. Potency, µM (titrated, usually from 57.9 µM), for the others: at the top dose signal change, negative = less light. actives 1.2% (n = 410,000). AID 1159524; active = well fitted falling curve with a large enough effect; inconclusive = small, poorly fitted or top-dose-only effect; inactive = no such curve, though single readings can be large or run the other way; tested in HEK293T cells; further: on the % scale 0 is the no-effect control and ±100 the full control effect; nearly all actives have a fitted effect of over 45% in size; luciferase light after 4 h
# NS1 function inh – influenza NS1 inhibition. S. cerevisiae slowed by influenza A NS1, growth recovery by OD600. Potency, µM (highest dose often 46.1 µM), for the others: at the top dose activity, positive = more growth. actives 0.4% (n = 270,000); active means well fitted rising curve with a large enough effect; inconclusive means small, poorly fitted or top-dose-only effect; inactive means no such curve, though single readings can be large or run the other way; further: nearly all actives have a fitted effect of over 50% in size
#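 In this qHTS, NS1 from influenza A is expressed in budding yeast, where it slows growth. Cells are switched from glucose to 2% galactose medium (pH 6.0, -URA), treated with compound, and growth recovery is read at OD600.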
# Cruzain noTriton – inhibitors of Trypanosoma cruzi cruzain without detergent | P25779 | purified cruzain, Z-FR-AMC fluorescence, no detergent | Potency, µM, without a hit: max response, negative = inhibition, actives largely listed as inhibitors | actives 2.3% (n = 200,000);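 further: plate controls were enzyme without inhibitor for no effect and buffer without enzyme for full effect; nearly all actives have a fitted effect of over 40% in size; top concentration of the series not given in the record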
# Target sequence (P25779 123-467 limits assumed): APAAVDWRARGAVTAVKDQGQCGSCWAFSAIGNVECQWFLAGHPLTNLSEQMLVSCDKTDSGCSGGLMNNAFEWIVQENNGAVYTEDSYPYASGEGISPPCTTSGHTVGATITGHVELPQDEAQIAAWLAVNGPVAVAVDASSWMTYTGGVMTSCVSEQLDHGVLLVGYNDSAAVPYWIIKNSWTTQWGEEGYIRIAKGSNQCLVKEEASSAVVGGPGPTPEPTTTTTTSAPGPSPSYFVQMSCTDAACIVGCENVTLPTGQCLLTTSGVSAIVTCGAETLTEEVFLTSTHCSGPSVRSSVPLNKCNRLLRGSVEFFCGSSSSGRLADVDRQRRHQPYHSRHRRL
#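 Detergent-free condition (0.00005% Triton X-100) in acetate buffer pH 5.5 with DTT. 1.5 nM enzyme and compound were pre-mixed 15 min, then 2 uM Z-FR-AMC substrate added; reaction progress from fluorescence change between first and third reads (60 s).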
# Cruzain inh Det – blocks cruzain activity in presence of Triton detergent; actives 0.43% (n = 200,000); Potency, µM, without a hit: max response, negative = inhibition, actives largely listed as inhibitors; purified cruzain, Z-FR-AMC fluorescence, 0.01% Triton; P25779;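 further: plate controls were neutral wells for no effect and buffer without enzyme for full effect; nearly all actives have a fitted effect of over 40% in size; top concentration of the series not given in the record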
#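 Read-out: AMC fluorescence (360 nm excitation, 450 nm emission), four reads over 2 min, first-to-third difference used. Conditions: cruzain 1.5 nM, Z-FR-AMC 2 uM, pH 5.5 acetate, 5 mM DTT, 0.01% Triton X-100.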
# Marburg entry inh – blocks Marburg virus binding to or entry into cells; Marburg virus pseudotyped entry inhibition, cell reporter; control for the full effect not named in the record; about a third of the inactives were read at about 46 µM; AID 540276; actives 1.8% (n = 300,000); Potency, µM (titrated, usually from 37.8 µM), inactives show at the highest dose activity change, negative = inhibition, actives largely listed as inhibitors; active = well fitted inhibition curve with a large enough effect; inconclusive = small, poorly fitted or top-dose-only effect, or effect the other way; inactive = flat fitted curve, though single readings scatter; tested in HEK293 cells; about a fifth of its hits are not listed in these tables; further: on the % scale 0 is the no-effect control and ±100 the full control effect; luciferase read-out
# Numbers without * were called inactive; ? = inconclusive; nt = no result given; & = joins results of further samples; [ ] = remark or other dose. Unless noted, the call rests on the fitted dose curve; in most records, active means well fitted curve in the direction sought with a large enough effect; inconclusive means small, poorly fitted or top-dose-only effect, or another doubt; inactive means no such curve, though single readings can be large; an effect the other way counts as inactive or inconclusive. Potency means the concentration at half of the fitted maximal effect. No enrichment for hits; overall some 4.5% were active at least once.
# Start of the listing, in advance (9 entries):
SMILES,SARS PLP yeast,RE007 growth inh,Lassa entry inh,2A StopGo,NS1 function inh,Cruzain noTriton,Cruzain inh Det,Marburg entry inh
COc1cccc(NC(=O)CSc2nc(=O)n(Cc3ccncc3)c3c2CCC3)c1,nt,nt,-14%[46.1 µM],2%,nt,2%,-1.4%,nt
O=C(Cn1c(=O)n2nc(-c3cccc(F)c3)nc2c2ccccc21)NCc1ccc(Cl)cc1,nt,nt,9%[46.1 µM],-2%,nt,11%,-0.4%,nt
COc1ccc(NC(=O)N2CCCC(C(=O)Nc3ccccc3OC)C2)cc1 (centres undefined),5%,15%,-3%,-12%,2%,nt,nt,2%[46.1 µM]
Cc1cc(C(=O)N2CCc3ccccc3C2)n[nH]1,-2%,4%,nt,0%,-15%,nt,nt,nt
CS(=O)(=O)NCCCNc1ccc(C(F)(F)F)cc1[N+](=O)[O-],1%,1%,nt,-8%,3%,nt,nt,nt
Cc1cc(C)c(CN2CCC(n3nccc3NC(=O)C3CCCC3)CC2)cc1C,0%,3%,nt,-3%,3%,nt,nt,nt
O=C(CNC(c1ccccc1)c1ccccc1)NCc1ccccc1Cl,-2%,5%,nt,-11%,-35%,nt,nt,nt
O=C(CSc1nc2ncccc2[nH]1)NCc1ccccc1,1%,7%,-4%,12%,-6%,-9%,2.0%,-3%
CC(=O)c1ccc(N2CCN(C(=O)Cn3ncc4c3-c3ccccc3OC4)CC2)cc1,nt,nt,nt,?,nt,-13%,-5.8%,1%[46.1 µM]

# All compounds of this part (from the top)
SMILES,SARS PLP yeast,RE007 growth inh,Lassa entry inh,2A StopGo,NS1 function inh,Cruzain noTriton,Cruzain inh Det,Marburg entry inh
COc1cccc(NC(=O)CSc2nc(=O)n(Cc3ccncc3)c3c2CCC3)c1,nt,nt,-14%[46.1 µM],2%,nt,2%,-1.4%,nt
O=C(Cn1c(=O)n2nc(-c3cccc(F)c3)nc2c2ccccc21)NCc1ccc(Cl)cc1,nt,nt,9%[46.1 µM],-2%,nt,11%,-0.4%,nt
COc1ccc(NC(=O)N2CCCC(C(=O)Nc3ccccc3OC)C2)cc1 (centres undefined),5%,15%,-3%,-12%,2%,nt,nt,2%[46.1 µM]
Cc1cc(C(=O)N2CCc3ccccc3C2)n[nH]1,-2%,4%,nt,0%,-15%,nt,nt,nt
CS(=O)(=O)NCCCNc1ccc(C(F)(F)F)cc1[N+](=O)[O-],1%,1%,nt,-8%,3%,nt,nt,nt
Cc1cc(C)c(CN2CCC(n3nccc3NC(=O)C3CCCC3)CC2)cc1C,0%,3%,nt,-3%,3%,nt,nt,nt
O=C(CNC(c1ccccc1)c1ccccc1)NCc1ccccc1Cl,-2%,5%,nt,-11%,-35%,nt,nt,nt
O=C(CSc1nc2ncccc2[nH]1)NCc1ccccc1,1%,7%,-4%,12%,-6%,-9%,2.0%,-3%
CC(=O)c1ccc(N2CCN(C(=O)Cn3ncc4c3-c3ccccc3OC4)CC2)cc1,nt,nt,nt,?,nt,-13%,-5.8%,1%[46.1 µM]
CCCOc1ccc(-c2nnn(CC(=O)N3CCCC(C)C3)n2)cc1 (centres undefined),-1%,-4%,nt,-11%,0%,nt,nt,nt
COC(=O)C1=C(C(=O)OC)SC2(S1)C(C(=O)OC)=C(C(=O)OC)SC1=C2c2cc(C)ccc2NC1(C)C,-7%,-28%,?,-28%,?,3%,-3.7%,1%
O=C1c2ccccc2S(=O)(=O)N1CC(O)COc1ccc(Br)cc1 (centres undefined),-7%,?,17%,13%,-13%,1%,-17%,?
O=C(CSc1nnc(C2CC2)n1Cc1ccccc1)Nc1cccnc1Cl,4%,-14%,9%,9%,nt,nt,nt,-1%[46.1 µM]
COC(=O)c1cc(NC(=O)c2c(-c3c(Cl)cccc3Cl)noc2C)ccc1N1CCOCC1,1%,2%,nt,-2%,-1%,nt,nt,nt
CC(=O)Nc1ccc(NC(=O)c2cc(CN3CCCC3)on2)cc1,nt,nt,-7%[46.1 µM],-17%,nt,7%,-2.6%,nt
COc1ccc(/C=C2\SC(=O)N(CCNC(=O)C3CC(=O)N(c4ccccc4)C3)C2=O)cc1 (centres undefined),2%,1%,3%,47%[activator],9%,?,-5.6%,-25%
Cc1ccc(-n2nc(C)c3c(=O)[nH]c(C(F)(F)F)nc32)cc1,13%,nt,-3%,nt,-5%,?,0.9%,-21%
CC(C)Cn1cnc2c(c1=N)C(c1ccccc1)C1=C(CC(C)(C)CC1=O)O2 (centres undefined),0%,2%,?,-1%,-6%,nt,nt,?
O=[N+]([O-])c1ccc(NN=Cc2cc(Br)ccc2O)nc1,nt,-5%,?,7%,nt,nt,nt,?
O=C(N/N=C/c1cccc(Oc2ccccc2)c1)c1ccccc1Br,-19%,9%,6.5µM*,nt,-48%,-10%,-4.2%,?
S=c1[nH]nc(COc2ccccc2)n1/N=C/c1ccccn1,-5%,-17%,-19%,0%,13%,-7%,-2.3%,16%
O=C1C(=O)N(c2ccccn2)C(c2ccc(F)cc2)/C1=C(/O)c1ccc(Br)cc1 (centres undefined),4%,-14%,nt,-14%,0%,nt,nt,nt
CC1=C(c2ccc(C)c(C)c2)S(=O)(=O)N=C1N1CCC(C(=O)Nc2ccc(Cl)cc2)CC1,nt,nt,-18%[46.1 µM],-29%,nt,9%,0.9%,nt
O=C(NCc1ccco1)Nc1ccc([N+](=O)[O-])cc1,-2%&-1%,4%,nt,19%,-40%&-4%,nt,nt,nt
COc1ccccc1NC(=O)Cn1c(=O)n2nc(C)nc2c2ccccc21,3%,2%,nt,20%,-10%,-7%,3.6%,nt
# More records:
SMILES,SARS PLP yeast,RE007 growth inh,Lassa entry inh,2A StopGo,NS1 function inh,Cruzain noTriton,Cruzain inh Det,Marburg entry inh
Cc1csc(=Nc2ccccc2)n1CCO,-8%,-1%,-10%,-23%,1%,1%,-1.0%,21%
N[C@H](CCP(=O)(O)O)C(=O)O,nt,nt,nt,-1%&-3%,nt,8%&9%,-1.5%&1.7%,-25%&-25%
O=C(CSc1nnc2ccccn12)Nc1ccc2c(c1)OCO2,0%,0%,-12%[46.1 µM],32%[activator],nt,nt,nt,?
CCN(CC(=O)Nc1c(F)cccc1F)C(=O)/C=C/c1cn(Cc2ccccc2)nc1-c1cccnc1,26%,11%,4%,-12%,5%,nt,nt,15%
Cc1nc(SCn2nnc3ccccc3c2=O)nc(C)c1C,1%,-5%,6%,40%[activator],-24%,3%,3.2%,1%[46.1 µM]
O=C(O)c1cccc(S(=O)(=O)NCCc2ccccc2)c1,1%,11%,26%,2%,6%,nt,nt,?
C=CCNc1nc(C)nc(OC)n1,1%,2%,15%,10%,-4%,1%,3.6%,4%&4%&4%
CC(=O)c1c(C(C)=O)c(C)n(C2CCCCC2)c1C,20%,19%,11%,-7%,-11%,18%,-0.5%,2%
O=C(Nc1ccc(Cl)cc1)C1(S(=O)(=O)c2ccccc2)CC1,0%,-11%,4%,-10%,nt,nt,nt,19%
CC1C/C(=N\NC(=O)CCc2ccc(S(=O)(=O)N3CCOCC3)cc2)CC(C)(C)C1 (centres undefined),-2%,14%,?,-19%,4%,15%,2.4%,15%
Cc1cc(C)n(/N=C/c2cccs2)c(=O)c1C#N,8%,-6%,-1%,-15%,2%,2%,-7.8%,15%
CC(=O)Nc1ccc(NC(=O)c2ccc3c(c2)C(=O)N(c2ccccc2C)C3=O)cc1,0%,6%,nt,-21%,-3%,nt,nt,nt
COc1ccc(OC)c(NC(=O)CSc2ncnc3c2cnn3-c2ccccc2Cl)c1,-16%,8%,?,7.9µM*,1%,-5%,-0.5%,1.8µM*
COc1ccc(C=O)cc1CSc1ccccn1,0%,-1%,-2%,14%,0%,nt,nt,6%
COc1ccccc1C(=O)Nc1nnc(S(=O)(=O)N(C)c2ccc(Cl)cc2)s1,nt,nt,0%[46.1 µM],37%[activator],nt,?,-0.9%,nt
CC(=O)Nc1ccc(NC(=O)Cn2nc([N+](=O)[O-])c(Br)c2C)cc1,2%,-2%,-11%,0%,nt,nt,nt,-4%[46.1 µM]
COC(=O)[C@@H](NC(=O)Nc1cccc(Br)c1)C(C)C,10%,7%,0%,-23%,0%,9%,-3.6%,?
CCC(C)c1ccc(O)c(NC(=S)NC(=O)c2cccnc2)c1 (centres undefined),-4%,-7%,3%[46.1 µM],15%,-3%,nt,nt,?
O=C(COC(=O)c1ccc([N+](=O)[O-])o1)Nc1cccc(S(=O)(=O)N2CCCCC2)c1,-1%,6%,nt,-12%,nt,nt,nt,0%[46.1 µM]
Cc1cc(NC(=O)CSc2ccc3nnc(-c4ccccn4)n3n2)no1,4%,0%,nt,5%,-5%,-2%,-1.3%,nt
CC(=O)NCC1CCCN(C(=O)c2ccc(OC3CCN(Cc4ccccn4)CC3)cc2)C1 (centres undefined),3%,3%,nt,1%,-1%,nt,nt,nt
COc1cccc(CNC(=O)C2CCCN(S(=O)(=O)N3CC(C)CC(C)C3)C2)c1 (centres undefined),-9%,-1%,nt,-9%,-22%,nt,nt,nt
CC(=O)C(=Nc1ccc(Cl)cc1Cl)NNc1cccc(Cl)c1,-26%,-3%,10µM*,24%,-64%,?,0.0%,?
CC1CCCCN1C(=O)c1ccc(OC2CCN(S(=O)(=O)N(C)C)CC2)cc1 (centres undefined),-3%,47%,-3%[46.1 µM],8%,-4%,nt,nt,?
Cc1cc(NC(=O)CSc2ncc(C(=O)Nc3ccc(C)c(C)c3)c(=O)n2C)no1,nt,nt,-15%[46.1 µM],3%,nt,7%,0.8%,nt
CCOC(=O)C1=C(N)Oc2ccccc2C12C(=O)N(CC(=O)OC)C(CC(=O)OC)=C2C(=O)OC (centres undefined),8%,2%,4%,17%,-4%,26%,5.0%,19%
CCn1c(SCC(=O)Nc2nccs2)nnc1-c1cccnc1,-1%,-8%,nt,-2%,10%,nt,nt,nt

# Screening results: PubChem, National Center for Advancing Translational Sciences (NCATS)
